Assay outcomes from PubChem BioAssay.
gsp antag: antagonists of gsp mutant (McCune-Albright syndrome); 0.4% of 340,000 active; gsp-mutant cells, cAMP HTRF, 30 min; control for the full effect not named in the record; Potency, µM (series often up to 76.9 µM), for the others: top-dose activity change, negative = inhibition, actives largely listed as inhibitors; AID 624288; active = falling curve of any shape with a large fitted effect; inconclusive = falling curve, mostly with a smaller effect; inactive = flat or rising curve; cell line not stated here;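 note: intracellular cAMP measured with PDE inhibitor Ro 20-1724 present during compound exposure; potency is the fitted concentration of half-maximal effect; % is set by controls: 0 for no effect and ±100 for the full control effect; nearly all actives have a fitted effect of over 65% in size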
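Cells in G418 medium, seeded 16-24 h, 37C; buffer exchange to DPBS + 1 mM CaCl2, 0.5 mM MgCl2, 0.05% BSA; cpds in DMSO + […] (300 uM stock), 30 min 37C; HTRF cAMP detection.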
D2 ag: agonists of human D2 dopamine receptor (beta-arrestin). activation, % (no concentration beside the values). DiscoveRx PathHunter D2 beta-arrestin, luminescence, 90 min; 100% = 57 uM dopamine signal. P14416. 0.084% of 360,000 active; in the data active = activation above about 40%; inconclusive = about 15% to 40%; inactive = below about 15%; note: compound concentration not given in the record; the text of the record calls up to 30% inactive
Target sequence (P14416 whole entry, looked up): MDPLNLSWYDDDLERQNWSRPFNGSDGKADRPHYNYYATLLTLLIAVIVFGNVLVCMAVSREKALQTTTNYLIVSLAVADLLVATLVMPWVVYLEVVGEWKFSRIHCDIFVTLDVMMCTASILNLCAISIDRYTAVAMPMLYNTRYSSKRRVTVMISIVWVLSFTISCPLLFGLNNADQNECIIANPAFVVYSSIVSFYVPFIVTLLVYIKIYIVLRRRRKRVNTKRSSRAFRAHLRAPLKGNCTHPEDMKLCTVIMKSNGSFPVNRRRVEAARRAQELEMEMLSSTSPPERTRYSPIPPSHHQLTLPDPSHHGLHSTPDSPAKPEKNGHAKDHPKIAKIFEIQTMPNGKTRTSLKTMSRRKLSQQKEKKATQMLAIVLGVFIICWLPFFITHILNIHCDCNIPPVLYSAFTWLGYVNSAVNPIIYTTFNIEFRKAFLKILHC
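DiscoveRx PathHunter D2 beta-arrestin cells (2,100/well) attached overnight, then compound-stimulated 90 min at 37 C in HBSS/10 mM HEPES/0.1% Tween-20 buffer; beta-galactosidase complementation read by luminescence after 1 h at ambient temperature. Dopamine 57 uM final (EC100) as control.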
CtBP-E1A blk: CtBP/E1A binding inhibition | AlphaScreen GST-E1A/His-CtBP binding, 1536-well; active compounds read low; control for the full effect not named in the record | activity change, % (test concentration not listed) | 0.49% of 340,000 active | AID 651724; in the data active means activity change below about -65%; inconclusive means about -30% to -65%; inactive means above about -30%; note: % is set by controls: 0 for no effect and ±100 for the full control effect
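Steps: dispense buffer (Tris pH 8.0, NaCl 300 mM, TCEP 1 mM, BSA, Tween 20); add 5X protein mix (GST-E1A, His-CtBP, 125 nM each); pin 23 nL compound; 2 h at 37 °C, dark; add 5X beads (50 ug/mL); 1 h; read.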
gsp agonist: agonists of gsp mutant (McCune-Albright syndrome) | gsp mutant cells, cAMP HTRF, 30 min; control for the full effect not named in the record | 0.13% of 340,000 active | AID 624287 | Potency, µM (top dose mostly 76.9 µM), for inactives: top-dose activation (cAMP increase), hits mostly activators; active = well fitted activation curve with a large enough effect; inconclusive = small, poorly fitted or top-dose-only effect, or another doubt; inactive = no such curve, though single readings can be large or run the other way; cell line not stated here;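 note: phosphodiesterase inhibitor Ro 20-1724 added with compounds to block cAMP breakdown; potency is the fitted concentration of half-maximal effect; nearly all actives have a fitted effect of over 60% in size; about a fifth of the inactives were tested at one dose only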
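Cells in DMEM/10% FBS with G418 were pretreated with compounds in DMSO plus […] (300 uM stock) for 30 min at 37C. cAMP was measured by HTRF (cAMP-d2 plus anti-cAMP antibody-K) after 30 min at room temperature.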
D2 potentiator: human D2 receptor positive allosteric modulation. potentiation, % (test concentration not listed). DiscoveRx D2 beta-arrestin cells, luminescence, 90 min; 100% = 57 uM dopamine signal. P14416. 0.23% of 360,000 active. AID 624464; active = potentiation of 50% or more; inconclusive = 30% to 50%; inactive = 30% or less;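 note: compound concentration not given in the record; tested on top of an EC20 dose of dopamine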
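D2 cells co-treated with compound plus 50 nM dopamine (EC20) for 90 min at 37 deg C to detect potentiation. Beta-arrestin recruitment was read as enzyme-fragment luminescence after 1 h at ambient temperature. Full response was set by 57 uM dopamine.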
Six1-Eya2 blk: inhibitors of human Six1/Eya2 interaction | Q15475+O00167 | AlphaScreen GST-Six1/His-Eya2 binding, biochemical; active compounds read low; control for the full effect not named in the record | activity change, % (no concentration beside the values) | 0.56% of 360,000 active; in the data active = activity change below about -65%; inconclusive = about -30% to -65%; inactive = above about -30%; note: % is set by controls: 0 for no effect and ±100 for the full control effect
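AlphaScreen luminescence read after one hour at 37 °C in darkness. Pin-transferred compounds met GST-Six1 and His-Eya2 protein (5X stock 250 nM/500 nM) plus glutathione donor and Ni-chelate acceptor beads (5X, 50 ug/mL).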
* marks the source's active call; other numbers are inactive results; ? = inconclusive; · = not tested or not shown; [ ] = another dose, or the depositor's remark. No enrichment for hits (roughly 1.4% active in at least one column).

compound	gsp antag	D2 ag	CtBP-E1A blk	gsp agonist	D2 potentiator	Six1-Eya2 blk
O=C(CN(Cc1ccc(Cl)cc1)C(=O)CNS(=O)(=O)c1ccc(F)cc1)NCC1CCCO1 (centres undefined)	2%	2.3	1	0%	1	5
CCOc1c(C(N)=O)cc([N+](=O)[O-])cc1[N+](=O)[O-]	-10%	-6.1	-7	4%[15.4 µM]	-2	0
CCCC(=O)N1CCN(c2ccc(NC(=O)c3cccs3)cc2)CC1	-15%	1.0	0	-1%[15.4 µM]	1	-9
O=S(=O)(O)c1cc2onnc2c2ccccc12	7%	4.5	?	?	5	?
Clc1ccc(-c2cn3c(n2)-c2ccccc2C3)cc1Cl	-21%	-3.5	-14	-40%[inhibitor]	14	-9
COc1ccc(C2=NN(C(=O)CCCC(=O)O)C(c3cccs3)C2)cc1OC (centres undefined)	-5%	1.8	-2	-1%[15.4 µM]	-7	2
CCOc1ccccc1NC(=O)Nc1ccccn1	10%	0.9	-12	13%	1	-2
CCOC(=O)CN=C(NS(=O)(=O)c1ccc(Cl)cc1)c1ccccc1	-2%	-3.2	1	-21%[15.4 µM]	-13	8
CCN(Cc1ccncc1)C(=O)c1cccc(S(=O)(=O)N2CCCCC2)c1	-2%	-1.5	1	28%	-1	5
Cc1c(C(=O)NCc2cccs2)oc2ccccc12	0%	-2.1	59	2%	-5	6
COC(=O)c1noc(-c2ccc(OC)cc2)n1	-4%	2.7	-9	22%	-8	13
CCOc1ccc(S(=O)(=O)Nc2ccc(C(=O)NCC(c3ccc(OC)cc3)N3CCOCC3)cc2)cc1 (centres undefined)	-15%	4.7	-8	22%	-6	0
C[C@H](CO)N1C[C@H](C)[C@H](CN(C)S(C)(=O)=O)OCc2ccccc2-c2c(n(C)c3ccccc23)C1=O	·	-1.6	3	-34%	-3	-1
Nc1nc2ccc(O)cc2s1	0%	0.5	-3	7%	0	5
CCC(=O)NCCCCCCCCCNC(=O)CC	-12%	0.6	7	?	-4	14

Additional results
compound	gsp antag	D2 ag	CtBP-E1A blk	gsp agonist	D2 potentiator	Six1-Eya2 blk
CCc1nc2ccc(C(=O)NCCc3ccccn3)cn2c1N(CC)CCOC	·	-4.1	2	·	-4	6
Nc1nc(Cl)cc(Sc2ccc3ccccc3c2)n1	8%	-0.4	2	1%	-6	-1
O=[N+]([O-])c1cccc(Oc2ncccc2[N+](=O)[O-])c1	9%	2.4	-2	-6%[15.4 µM]	8	-2
O=C(NCc1cccnc1)C(=O)NCC(c1ccco1)N1CCOCC1 (centres undefined)	14%	0.2	2	-1%	-3	4
COc1cc(F)cc(C2=CC(=O)C[C@H](c3ccc(F)cc3)C2)c1	-15%	-1.1	-6	·	-8	-7
O=C1CCC([N+](=O)[O-])C(c2cccc(Cl)c2Cl)N1 (centres undefined)	-3%	-0.5	-3	0%	-1	10
CN(Cc1nc2ccccc2[nH]1)Cc1nc(CC2CC2)no1	9%	-4.6	·	-7%	-12	6
O=C(CNC(=S)NC(=O)c1cccs1)c1ccccc1	2%	-2.8	13	-29%[15.4 µM]	-7	-6
COC(=O)c1c(NC(=O)c2ccc(S(=O)(=O)N3CCOCC3)cc2)sc2c1CCN(C(C)C)C2	0%	1.3	-3	0%	-20	-7
Cn1c(CCN2CCCCC2)nc2cc(NC(=O)NC3CCCCC3)ccc21	3%	-3.6	-4	18%	-13	11
COc1ccc(C(=O)Nc2cc3c4c(c2)C(C)C(=O)N4CCC3)cc1 (centres undefined)	-7%	-3.5	1	-1%	-22	-6
COc1ccc(-n2c(N)c(C(=O)NCC3CCCO3)sc2=S)cc1 (centres undefined)	3%	1.2	-11	-23%	3	-5
Cc1sc(-c2ccccn2)nc1OC(=O)c1ccc(Cl)cc1	7%	0.4	-7	-21%	-11	-2
O=C(NCc1ccccc1F)c1ccncc1	2%	-4.0	-2	9%[15.4 µM]	0	5
Cc1nnc2n(Cc3ccccc3)c(=O)c3c4c(sc3n12)COC(C)(C)C4	7%[15.4 µM]	-4.0	-6	?	-16	-14

Of the compounds above, these have four or more nitrogen atoms.
compound	gsp antag	D2 ag	CtBP-E1A blk	gsp agonist	D2 potentiator	Six1-Eya2 blk
CCc1nc2ccc(C(=O)NCCc3ccccn3)cn2c1N(CC)CCOC	·	-4.1	2	·	-4	6
O=C(NCc1cccnc1)C(=O)NCC(c1ccco1)N1CCOCC1 (centres undefined)	14%	0.2	2	-1%	-3	4
CN(Cc1nc2ccccc2[nH]1)Cc1nc(CC2CC2)no1	9%	-4.6	·	-7%	-12	6
Cn1c(CCN2CCCCC2)nc2cc(NC(=O)NC3CCCCC3)ccc21	3%	-3.6	-4	18%	-13	11
Cc1nnc2n(Cc3ccccc3)c(=O)c3c4c(sc3n12)COC(C)(C)C4	7%[15.4 µM]	-4.0	-6	?	-16	-14

The listing continues:
compound	gsp antag	D2 ag	CtBP-E1A blk	gsp agonist	D2 potentiator	Six1-Eya2 blk
CCC(C(=O)NCc1ccco1)N(C(=O)CNS(=O)(=O)c1ccccc1)c1ccc(OC)cc1 (centres undefined)	-40%	-1.1	7	?	5	0
CC(Cc1ccccc1)NC(=O)C1CCCNC1=O (centres undefined)	3%	0.2	0	-4%	5	0
Cc1ccc(N(C(=O)c2ccco2)C(C(=O)NC2CCCC2)c2ccco2)c(C)c1 (centres undefined)	-12%	-5.7	0	-6%	-4	1
COc1ccc(S(=O)(=O)N2CCN(C(=O)COc3ccc4c(C)cc(=O)oc4c3)CC2)cc1	?	0.8	-16	-33%[inhibitor]	-9	-20
Cc1ccccc1OCCn1cc(C=O)c2ccccc21	-5%	0.5	-3	9%[15.4 µM]	-4	-22
OCC1OC(Nc2ccccc2C=NO)C(O)C1O (centres undefined)	·	-4.8	-7	-5%	-8	-4
CCOc1ccc2[nH]cc(C(=O)NCCc3ccccc3)c(=O)c2c1	-25%	7.1	-23	1%	6	-8
COc1cccc(Nc2nnc(SCC(=O)N3CC(C)OC(C)C3)s2)c1 (centres undefined)	-8%	0.3	-3	-4%	1	-3
O=c1[nH][nH]cc1C=NCc1cccc(C(F)(F)F)c1	8%	-3.5	·	1%	0	-3
CC(C)(C)n1nc2c(c1NC(=O)c1ccc(Cl)c([N+](=O)[O-])c1)CS(=O)(=O)C2	3%	-2.3	-7	10%	-11	2
CCS(=O)(=O)c1ccc(-c2cccc(NC(=O)COc3ccccc3)c2)nn1	9%	-3.1	·	-20%	-2	27
COc1ccc(C(=O)NCCn2cc(SCC(=O)NCC3CCCO3)c3ccccc32)cc1 (centres undefined)	-27%	3.4	-11	42%	-1	-3
O=C(CNC(=O)c1cn2ccccc2n1)Nc1ccc(F)c(F)c1	1%	-3.5	4	-53%[inhibitor]	-13	6
CCCc1nc2sc3ccccc3c(=O)c2c(=O)n1Cc1ccco1	-12%	-5.6	-12	7%	-5	-1
Cc1cc(NS(=O)(=O)c2ccc(-c3ccccc3)cc2)no1	-24%	-0.9	-7	-3%	12	-1

Next part.
compound	gsp antag	D2 ag	CtBP-E1A blk	gsp agonist	D2 potentiator	Six1-Eya2 blk
COc1ccc(CCNC(=O)C2CCN(S(=O)(=O)c3ccc(-n4cnnn4)cc3)CC2)cc1OC	-13%	-0.1	0	-28%	-2	1
CC1CCCC(NC(=O)c2ccncc2)C1C (centres undefined)	11%	-3.5	-7	1%	-1	1
CCC(C)NC(=O)CSc1nc2n[nH]c(C)c2c(=N)n1-c1ccc(OC)cc1 (centres undefined)	7%	0.4	-85*	15%	-6	-74*
O=C(Cn1cc2c(n1)CCCC2)Nc1ccccc1Cl	1%	-3.1	0	?	-4	21
Cc1ccc2c(c1)c(N=NC(N)=S)c(O)n2Cc1ccccc1	10%	-4.8	9	3%[15.4 µM]	-9	3
COc1cc(C(=O)NCCC(=O)NCCN2CCCCCC2)cc(OC)c1OC	-4%	-1.1	3	?	-6	0
COc1cc(C)ccc1OCc1cc(C(=O)N2CCN(C3CCCCC3)CC2)no1	-2%	-0.8	·	3%	-11	-5
CCc1ccccc1SCc1noc(C(=O)NCC2CCCO2)c1C(=O)O (centres undefined)	0%	-0.3	3	8%	-6	2
CCOC(=O)c1sc2nc3c(SCC(=O)O)cc(C(=O)c4cc(F)ccc4O)cn3c(=O)c2c1C	-12%	4.5	-1	16%[15.4 µM]	?	-8
COc1ccc(-c2cc3c(=O)n(CC(=O)NCc4cccnc4)nc(C)n3n2)cc1	-2%	-2.2	6	13%	-6	-3
Cc1ccc(CSc2[nH]c(=O)ncc2C)cc1	-4%	-0.6	·	4%	-6	1
O=C(NNC(=O)c1cccs1)c1ccc(Cl)c(Cl)c1	2%	-3.9	-12	6%[15.4 µM]	-9	4
CC(=O)Nc1cccc(-c2ccnc3c2CC(C(=O)NCc2ccc(N(C)C)cc2)O3)c1 (centres undefined)	·	14	-17	·	5	-19
COc1ccc(OCc2nc(C#N)c(N3CCN(c4ccc(OC)cc4)CC3)o2)cc1	-4%	2.9	?	-21%	2	?
C/C(=N/NC(=O)CNC(=O)C1COc2ccccc2O1)c1ccc2c(c1)OCCO2 (centres undefined)	-8%	3.7	·	10%[15.4 µM]	-4	-4

4 entries picked at random from those above:
compound	gsp antag	D2 ag	CtBP-E1A blk	gsp agonist	D2 potentiator	Six1-Eya2 blk
Clc1ccc(-c2cn3c(n2)-c2ccccc2C3)cc1Cl	-21%	-3.5	-14	-40%[inhibitor]	14	-9
CCOc1ccccc1NC(=O)Nc1ccccn1	10%	0.9	-12	13%	1	-2
O=C(CN(Cc1ccc(Cl)cc1)C(=O)CNS(=O)(=O)c1ccc(F)cc1)NCC1CCCO1 (centres undefined)	2%	2.3	1	0%	1	5
CC(C)(C)n1nc2c(c1NC(=O)c1ccc(Cl)c([N+](=O)[O-])c1)CS(=O)(=O)C2	3%	-2.3	-7	10%	-11	2
